Rango-impB inh: Rango-importin beta binding inhibition; AID 540263; Q14974; Potency, µM (top dose mostly 92.2 µM), inactives show top-dose inhibition of complex formation; Rango CFP/YFP FRET sensor + importin beta, 45 min; hit rate 0.031% among 340,000; active = rising FRET ratio curve, often small or poorly fitted; inconclusive = mostly compound fluorescence or quenching in the first reads; inactive = flat curves in all reads;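 note: potency is the fitted concentration of half-maximal effect; 0% = DMSO wells and 100% = buffer wells lacking importin beta; nearly all actives have a fitted effect of over 15% in size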
Target sequence (Q14974 whole entry, looked up): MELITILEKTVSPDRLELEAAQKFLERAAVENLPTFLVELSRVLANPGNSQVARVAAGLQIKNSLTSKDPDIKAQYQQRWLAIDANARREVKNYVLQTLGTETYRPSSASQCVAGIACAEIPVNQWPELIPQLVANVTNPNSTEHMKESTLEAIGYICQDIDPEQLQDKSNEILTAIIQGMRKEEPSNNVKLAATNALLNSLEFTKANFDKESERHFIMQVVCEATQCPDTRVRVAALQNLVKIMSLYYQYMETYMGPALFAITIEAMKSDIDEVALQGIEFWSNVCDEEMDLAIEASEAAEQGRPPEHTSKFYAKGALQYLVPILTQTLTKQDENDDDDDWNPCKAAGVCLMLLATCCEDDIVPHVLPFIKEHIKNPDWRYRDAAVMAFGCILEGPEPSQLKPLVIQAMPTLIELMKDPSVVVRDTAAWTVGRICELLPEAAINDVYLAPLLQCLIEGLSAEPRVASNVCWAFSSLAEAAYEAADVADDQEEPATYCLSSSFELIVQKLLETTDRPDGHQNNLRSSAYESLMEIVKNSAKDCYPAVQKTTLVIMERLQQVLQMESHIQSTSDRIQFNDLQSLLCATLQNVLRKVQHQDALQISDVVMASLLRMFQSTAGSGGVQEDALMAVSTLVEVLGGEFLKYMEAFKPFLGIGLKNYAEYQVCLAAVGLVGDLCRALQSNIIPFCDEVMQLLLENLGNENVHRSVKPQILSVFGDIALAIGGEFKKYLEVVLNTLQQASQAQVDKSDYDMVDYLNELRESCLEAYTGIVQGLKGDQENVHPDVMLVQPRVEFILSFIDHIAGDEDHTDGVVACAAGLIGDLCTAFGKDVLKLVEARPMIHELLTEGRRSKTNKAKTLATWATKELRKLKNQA
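Inhibition scored from the CFP 486 nm/YFP 530 nm FRET ratio 45 min after adding 0.125 microM importin beta to 50 nM Rango biosensor preincubated 5 min with compound (room temperature, PBS with DTT, Tween-20, BSA). No-importin wells as positive control.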
Rango release inh: inhibition of RanGTP-driven Rango-importin beta dissociation. Biochemical FRET Rango-importin beta, RanGTP-induced dissociation. Potency, µM (highest dose often 46.1 µM), without a hit: top-dose activity change, negative = inhibition. hit rate 0.071% among 340,000. AID 540253; active means falling FRET ratio curve, often poorly fitted, with flat reads before Ran was added; inconclusive means other falling curves, or compound fluorescence or quenching; inactive means flat or rising ratio curve;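 note: potency is the fitted concentration of half-maximal effect; % of control where 0% means no effect; nearly all actives have a fitted effect of over 45% in size; -100% = wells without RanGTP and RCC1; the record marks most hits as doubtful in a second field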
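Rango/importin beta premix (0.1/0.25 uM final), PBS + 1 mM DTT + 0.02% Tween-20 + 0.1% BSA; cpd 5 min RT; FRET pre-read; + RanGTP-RCC1 (0.6 uM Ran, 2 mM GTP, 0.2 uM RCC1); 45 min RT; FRET post-read, ex 430, em 486/530 nm.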
miR-21 FLuc: miR-21 reporter, rising signal. HeLa miR-21 FLuc reporter, luciferase, 48 h. Potency, µM (top dose mostly 38.3 µM), inactives show top-dose reporter change, positive = more light. 340,000 tested, under 10 active. AID 2288; active = well fitted rising curve with a large enough effect; inconclusive = small, poorly fitted or top-dose-only effect; inactive = no such curve, though single readings can be large or run the other way;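 note: % of control where 0% means no effect; miR-21 action dims this reporter so a rising signal means less miR-21 action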
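Using DMEM plus 10% FBS, HeLa miR-21-FLuc cells are incubated with test compounds (final up to about 40uM) for 48 hours; firefly luciferase signal is then imaged following reagent-mediated lysis.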
GLA inh pH 4.5: inhibitors of human alpha-galactosidase A at pH 4.5; P06280; purified enzyme, 4-MU-alpha-Gal fluorescence, pH 4.5; activity change, negative = inhibition, % at 105 µM; 230,000 tested, under 10 active; inconclusive = small, poorly fitted or top-dose-only inhibition, or a rising curve; inactive = flat fitted curve, though single readings scatter; no compound was filed as active;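 note: 0% = full activity with enzyme and -100% = basal without enzyme; dose as in the result columns while the protocol names 77 µM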
* marks the source's active call; other numbers are inactive results; ? = inconclusive; . = not tested or not shown; & = joins results of further samples; [ ] = remark or other dose. A portion of the library. The share of hits here may be higher or lower than overall.

SMILES | Rango-impB inh | Rango release inh | miR-21 FLuc | GLA inh pH 4.5
COc1cc(C2c3cc4c(cc3C(O)C3COC(=O)C23)OCO4)cc(OC)c1OC (centres undefined) | 0.2% | -14% | . | .
Cc1ccc(N2CCN(C(=O)c3cc(C(=O)c4ccccc4C)c[nH]3)CC2)c(C)c1 | 3.9% | 0% | -5% | -26
CCOC(=O)c1ccc(NC(=O)Cn2ccc([N+](=O)[O-])n2)cc1 | 1.2% | -2% | -4% | 4
CCn1nc(C)c(CNC(=O)C2CCC(=O)N(CCc3ccc(Cl)cc3)C2)c1C (centres undefined) | -1.7% | -2% | 0% | .
Cc1ccc(NC2CCCN(C(=O)c3cccnc3)C2)cc1C (centres undefined) | 2.7% | 1% | -3% | .
CC1CCCN(CCCNC(=O)C2CCCN(c3ncnc4c3nc3n4CCCCC3)C2)C1 (centres undefined) | -0.8% | 1% | -2% | .
COc1cc(OC)nc(N/N=C(\c2ccccc2)c2ccncc2)n1 | 2.7% | 2% | -9% | -5
C#CCOCCOCCOCCNc1nc(N2CCN(C(=O)Cn3cc(CC(C)O)nn3)CC2)nc(N2CCN(C(=O)[C@H]([C@@H](C)O)n3cc(CCCCN)nn3)CC2)n1 (some centres undefined) | -5.2% | 11% | . | .
CCNC(=S)NC1CC2CCC(C1)N2Cc1ccccc1 (centres undefined) | 3.3% | -2% | 1% | 6
Cc1c(CN2CCc3c([nH]c4ccccc34)C2C2CCCCC2)cnn1C (centres undefined) | ? | -9% | -4% | -1
O=C(COC(=O)C1(c2ccc(F)cc2)CCCC1)NCc1ccco1 | -3.6% | -3% | 2% | 0
O=C(NCCOc1ccccc1)c1ccccc1Cl | 2.3% | -9% | -28% | .
CCN(CC)C(=O)CN1C(=O)C2(OCC(C)(c3ccccc3)CO2)c2ccccc21 (centres undefined) | ? | 0% | 1% | -4
O=C(CCc1nnc2n(CCc3ccccc3)c(=O)c3ccccc3n12)NCCCN1CCCCC1 | 3.5% | 0% | 0% | .
C=CCOc1cccc(C2C(C(=O)c3ccco3)=C(O)C(=O)N2Cc2cccnc2)c1 (centres undefined) | -3.0% | -4% | 0% | .
COc1ccc(C(=O)N2CCC3(CC2)NCCc2[nH]cnc23)cc1 | 4.0% | 9% | 0% | .
O=C(O)C(NC(=O)c1ccccc1)=C(Cl)Cl | -1.9% | 3% | . | .
Cc1cc(/C=C2\SC(N)=NC2=O)c(C)n1-c1ccc(F)cc1 | ? | ? | -40% | -3
COc1ccccc1NC(=O)CCC(=O)OCc1ccc(Cl)cc1 | 0.1% | -3% | -1% | -4
O=C(CCc1ccccc1)NC1(Cc2ccccc2)CCN(CCCc2ccccc2)C1=O (centres undefined) | 2.4% | 8% | . | .
CC(=O)Nc1ccc(S(=O)(=O)Nc2ccn(Cc3ccccc3Cl)n2)cc1 | -0.3% | 3% | 3% | .
Cc1ccc(C(=O)N/C(=C\c2ccc(C(C)C)cc2)C(=O)NCCCN2CCOCC2)cc1 | 2.7% | -4% | 0% | 1
Cc1cc(Cl)ccc1N=c1ssnc1Cl | -0.2% | -11% | 6% | 2
CCCCN(C(=O)Cn1nnc2ccccc21)C(C(=O)NCCOC)c1ccccc1 (centres undefined) | 1.6% | -12% | -9% | -17
CN(Cc1nc(Cc2ccccc2F)no1)Cc1cccc2ncccc12 | 2.0% | 1% | 11% | 1
CCOCCn1c(=NC(=O)c2ccc(S(=O)(=O)N3CCOCC3)cc2)sc2cc(S(N)(=O)=O)ccc21 | 0.8% | 0% | -4% | .
CCCCCCCNC(=O)C1(CC2CC(c3ccc(Cl)cc3)=NO2)CCN(C(=O)Cc2ccc(F)cc2)CC1 (centres undefined) | -0.4% | 1% | -1% | .
O=C(C1CCC1)N1CCN(S(=O)(=O)c2cccc(F)c2)CC1 | -1.0% | -7% | . | .
COc1ccc(OC)c(S(=O)(=O)Nc2ccccc2C)c1 | 0.0% | -16% | -2% | 1
Cc1cccc(NC(=O)CN(C)S(=O)(=O)c2ccccc2)n1 | -1.2% | 1% | -6% | -3

Single records, as listed above. Order of screens: Rango-impB inh, Rango release inh, miR-21 FLuc, GLA inh pH 4.5
COc1cc(C2c3cc4c(cc3C(O)C3COC(=O)C23)OCO4)cc(OC)c1OC (centres undefined) across the screens: 0.2%, -14%, ., .
O=C(NCCOc1ccccc1)c1ccccc1Cl across the screens: 2.3%, -9%, -28%, .

Next part:
SMILES | Rango-impB inh | Rango release inh | miR-21 FLuc | GLA inh pH 4.5
CCn1c(=N)n(CC(=O)c2cccc([N+](=O)[O-])c2)c2ccccc21 | 0.7% | 2% | -41% | -3
CN(C)c1cccc(C(=O)OC(C(=O)Nc2ccc([N+](=O)[O-])cc2Br)c2ccccc2)c1 (centres undefined) | -0.3% | 18% | -17% | -6
Cc1ccc(S(=O)(=O)NCCC(=O)Oc2ccc3ccc(=O)oc3c2)cc1 | ? | 12µM* | -13% | ?
CCN1CCN(c2c(Cl)cccc2NC(=O)c2cc3ccccc3o2)CC1 | 0.7% | -8% | . | .
COc1ccc(C(=O)NC(=S)NNC(=O)c2cccc(C)c2)cc1 | 0.4% | 12% | . | .
CCN(CC)C(=O)[C@H]1C[C@H](CC(=O)NCCCN(C)C)C(=O)N2CCc3c([nH]c4ccc(Cl)cc34)[C@]12C | -9.4% | 24% | . | .
COc1cc2[nH]c(=O)c(C(=O)NCc3ccccc3Cl)c(O)c2cc1OC | 1.9% | 13% | -5% | .
CCc1ccc(NC(=O)CSc2nccn(-c3ccc4c(c3)OCCO4)c2=O)cc1 | -4.3% | -3% | . | .
c1ccc(-c2noc(CSc3nnnn3C3CCCCC3)n2)cc1 | -0.3% | -3% | -39% | -5
Cc1ccccc1N1CCN(S(=O)(=O)c2ccc3ccccc3c2)CC1 | 1.7% | 5% | 1% | .
CCOc1ccc(OCC)c(NC(=O)C2CCN(S(=O)(=O)c3c(C)[nH]c(=O)[nH]c3=O)CC2)c1 | 4.9% | -12% | 2% | 0
Cc1[nH]c(=O)[nH]c(=O)c1/C=N/NC(=O)[C@@H](N)CC(C)C | 1.1% | 23% | -2% | -2
Cc1cc(NC(=O)COC(=O)c2ccccc2[N+](=O)[O-])no1 | 3.8% | -20% | -3% | -5
COc1ccc(CC(=O)OCC(=O)c2c[nH]c3ccccc23)cc1 | 0.0% | 11% | . | .
CCCCOc1ccc(C(=O)CCN2CCOCC2)cc1 | -4.0% | -1% | 17% | -19
COC(=O)NNC(=O)C1CCC(C(=O)NNC(=O)OC)CC1 (centres undefined) | 0.6% | 2% | -1% | -4
CC(C)COc1nc2ccccc2nc1N1CCN(C)CC1 | 4.3% | -18% | -8% | .
COc1ccc(-c2c(C)nc3c(-c4ccc(F)cc4)cnn3c2N)cc1 | 3.0% | -12% | -48% | .
CC1(C)NC(=O)N(CC(=O)N2CCN(S(=O)(=O)c3cc(Cl)ccc3Cl)CC2)C1=O | 1.8% | 6% | . | .
CC(C)C1CCN(C(=O)C2CCC(=O)N(CCc3ccc(Cl)cc3)C2)CC1 (centres undefined) | -3.5% | -1% | -1% | .
O=C(Nc1cccc2ccccc12)c1ccc(Br)o1 | -4.5% | 6% | -13% | -3
CCN(CC)c1ccc2cc(-c3nc4ccccc4n3C)c(=O)oc2c1 | ? | ? | -13% | 7
O=C(O)c1cc(S(=O)(=O)Nc2ccc3cn[nH]c3c2)ccc1Br | ? | -9% | . | .
O=C(CN1C(=O)c2ccc([N+](=O)[O-])cc2C1=O)NC1CCS(=O)(=O)C1 (centres undefined) | -2.5% | 9% | . | .
O=[N+]([O-])c1cc(CN(CCO)CCO)ccc1O | 1.5% | -5% | -5% | -9
CC(=O)N1CCc2cc(S(=O)(=O)NC(C(=O)Nc3nc(C)cs3)C(C)C)ccc21 (centres undefined) | -1.5% | 1% | -7% | -5
CC1CCc2c(sc(NC(=O)/C=C/c3cccs3)c2C(=O)O)C1 (centres undefined) | 5.0% | 0% | 20% | .
CC1=C(C(=O)OCC2CCCO2)C(c2coc3ccc(C)cc3c2=O)C2=C(CCCC2=O)N1 (centres undefined) | ? | -25% | 1% | -4
CCCNC(=O)C(Cc1cccc(C#N)c1)NC(=O)c1ccc(C#N)cc1 (centres undefined) | -4.4% | ? | . | .
CC(C)(C)c1ccc(S(=O)(=O)N2CCN(c3ccccn3)CC2)cc1 | 0.6% | -2% | 0% | .

Following part.
SMILES | Rango-impB inh | Rango release inh | miR-21 FLuc | GLA inh pH 4.5
CCOc1ccc(-c2ncncc2-c2ccc(OC)c(OC)c2)c(O)c1 | 0.1% | 19% | -22% | .
COc1ccc(CNC(=O)CN(C(=O)c2ccc(CN3CCOCC3)o2)C2CCCC2)cc1 | -4.4% | 15% | -5% | -2
O=C(O)CCCc1nc2ccccc2s1 | -3.2% | 2% | 5% | -11
COc1ccc(NC(=O)CCN2C(=O)/C(=C/c3ccc4c(c3)OCO4)SC2=S)cc1 | -2.3% | 1% | 1% | 0
CCc1cc(C(=O)N(CCCOC)c2c(N)n(Cc3ccccc3)c(=O)[nH]c2=O)sc1C | -3.6% | -3% | . | .
Cc1ccc(Cn2c(=O)c3ccccc3n3c(CCC(=O)O)nnc23)cc1 | ? | 5% | . | .
Cc1ccc(S(=O)(=O)N2CCN(C(=O)c3cc(=O)c4ccccc4o3)CC2)cc1 | -3.8% | 1% | -9% | -29
Cc1cc(N(C(=O)c2ccco2)C(C(=O)NC2CCCCC2)c2ccccc2)ccc1-n1cnnn1 (centres undefined) | 0.1% | 1% | -7% | 6
CCN(/N=C/c1ccccc1)c1cc(=O)n(C)c(=O)[nH]1 | -2.0% | -9% | -3% | -3
COC(=O)CC(NC(=O)CN1CCN(c2ccc(F)cc2)CC1)c1cccc(F)c1 (centres undefined) | 1.9% | 34% | -9% | .
CCOC(=O)c1cc(C)nc(S(C)(=O)=O)c1C#N | 1.5% | 7% | -4% | 2
COc1ccc(OCCN(C)CC(=O)Nc2ccccc2SC)cc1 | -1.9% | -1% | -1% | .
O=C(NCCS(=O)(=O)N1CCCC1)c1ccccc1 | 1.9% | 28% | . | .
O=C(COc1ccccc1Cl)N1CCN(c2ccc([N+](=O)[O-])c(N3CCCCC3)c2)CC1 | -3.2% | -16% | 1% | -13
O=C(COc1ccc(Br)cc1)NCCNC(=O)c1ccncc1 | -0.5% | -1% | 0% | .
COCCCNC(=O)C[C@H]1C[C@H](C(=O)N2CCOCC2)[C@@]2(C)c3[nH]c4ccc(Cl)cc4c3CCN2C1=O | 0.3% | -1% | . | .
O=C(CCSc1nc(-c2ccco2)cc(C(F)(F)F)n1)NCCc1ccccc1 | 0.2% | -11% | -32% | 6
COc1ccc(N2CCN(C(=O)COC(=O)c3cccc(OC)c3O)CC2)cc1 | -1.6% | 3% | . | .
COC(=O)c1ccc(CSC(=N)N)o1 | 0.9% | 8% | -1% | -9
CCc1ccccc1NC(=O)Cn1nnc(C(=O)NCc2cccc(OC)c2)c1N | -2.3% | -6% | 21%&21% | .
O=C(Oc1ccc(N(C(=O)c2ccncc2)S(=O)(=O)c2ccc(F)cc2)cc1)c1ccncc1 | 0.6% | -1% | -3% | 1[21.1 µM]
CC(=O)Nc1ccc(NS(=O)(=O)c2cc(Cl)sc2Cl)cc1 | 4.5% | 33% | 0% | .
Cc1ccc(CN2CCN(CC(=O)NCc3ccccc3)CC2)cc1 | 3.1% | 0% | -4% | .
Cc1cccc(Nc2sc(C(=O)c3cc4cc(Cl)ccc4o3)c(N)c2C#N)c1 | -1.6% | ? | -5% | 0
Cc1cc(C)c2nc(N3CCC(C(=O)NCC4CCCO4)CC3)sc2c1 (centres undefined) | 3.0% | 26% | -9% | .
CCCn1cnc2c(sc3nc4c(cc32)CSC(C)(C)C4)c1=O | 0.8% | -6% | -16% | 5
Cc1ccsc1/C=N/NC(=O)c1cccs1 | -0.6% | 3% | -44% | 0

3 structures out of the list, sorted by count of non-hydrogen atoms, falling:
SMILES | Rango-impB inh | Rango release inh | miR-21 FLuc | GLA inh pH 4.5
CCc1cc(C(=O)N(CCCOC)c2c(N)n(Cc3ccccc3)c(=O)[nH]c2=O)sc1C | -3.6% | -3% | . | .
Cc1ccccc1N1CCN(S(=O)(=O)c2ccc3ccccc3c2)CC1 | 1.7% | 5% | 1% | .
CC(=O)Nc1ccc(NS(=O)(=O)c2cc(Cl)sc2Cl)cc1 | 4.5% | 33% | 0% | .
